MT1-MMP reporter: MT1-MMP gene expression reporter suppression – cell-based, luciferase reporter, luminescence (AID 618); calls from a first round at 10 µM; hits with a dose series show EC50 in µM; actives 0.62% (n = 87,000); MT1-MMP promoter luciferase reporter cells, luminescence;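 active = over half of the reporter light lost at 10 µM or EC50 under 50 µM; inactive = the rest and hits that failed the dose series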;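 note: actives suppress MT1-MMP promoter-driven transcription so potencies describe inhibitors; HT1080 fibrosarcoma cells; overnight exposure; toxic or luciferase-blocking compounds were not removed from the actives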
WNV protease inh: WNV NS2B-NS3 proteinase inhibition. AID 577. actives 0.18% (n = 65,000). WNV NS2B-NS3 protease, fluorogenic substrate Ex360/Em465; stronger effect = lower value. P06935. z-score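 (tested at a level between 10 and 100 µM)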;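 active = z-score at -3 or under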;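 note: score is relative to mean and spread of the compound wells of a plate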
Target sequence (P06935 1371-1501 limits assumed): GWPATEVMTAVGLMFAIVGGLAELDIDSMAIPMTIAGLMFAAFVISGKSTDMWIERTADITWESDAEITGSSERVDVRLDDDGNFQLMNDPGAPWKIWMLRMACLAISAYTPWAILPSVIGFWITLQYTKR
Target sequence (P06935 1502-1679 limits assumed): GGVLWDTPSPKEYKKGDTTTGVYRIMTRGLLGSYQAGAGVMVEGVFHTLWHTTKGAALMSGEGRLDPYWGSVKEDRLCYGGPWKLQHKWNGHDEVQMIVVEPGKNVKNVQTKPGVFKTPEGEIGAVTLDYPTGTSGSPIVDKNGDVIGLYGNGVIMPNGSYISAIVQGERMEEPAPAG
Hsc70: Hsc70 inhibitors, probe displacement, primary screen, biochemical, fluorescence polarization (AID 568); Hsc70 fluorescence polarization, probe displacement; higher % means a stronger effect; strong numbers were not always called active; one-dose displacement, % at 20 µM; IC50 in µM for titrated hits; 83,000 tested, under 10 active;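 active = displacement above 50% without optical interference and an IC50 on retest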;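 note: ATPase domain with a fluorescein-tagged ATP probe; 0% = vehicle and 100% = excess ADP; read after one hour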
* hit, by the source's call; i = inactive; . = no result given. These rows are one share of the data (hit frequency here may not be typical).

mol,MT1-MMP reporter,WNV protease inh,Hsc70
CCOC(=O)CSc1ccc2nnc(-c3cccs3)n2n1,i,0.36,-2.9%
O=C1C2C3C=CC(C3)C2C(=O)N1c1n[nH]c(CCc2ccccc2)n1 (stereo unspecified),i,-0.03,-0.5%
Cc1cccc(NC(=O)c2c(O)c3cccc4c3n(c2=O)CC4)c1,i,.,-5.4%
CCn1ncc(Cl)c1C(=O)NC(C)c1ccccc1 (stereo unspecified),i,-2.3,-1.2%
CCCCN(CC)S(=O)(=O)c1ccc(C(=O)Nc2nnc(CSC)o2)cc1,i,-0.72,-2.4%
Cc1cc(C)c2c(c1)SC1=NC(c3ccccc3)(C(F)(F)F)NC(=O)N12 (stereo unspecified),i,.,3.5%
CCOC(=O)N1CCC(n2c(=S)[nH]c3cc(OC)c(OC)cc3c2=O)CC1,i,-0.82,1.3%
O=C(CN1CCN(Cc2ccccc2)CC1)c1ccc(Br)cc1,i,-0.2,4.7%
O=C(OCc1c(Cl)cccc1Cl)c1cccnc1,i,-0.9,1.0%
COc1ccc(C(C(=O)NC2CCCC2)N(Cc2ccccc2)C(=O)CNC(=O)c2ccco2)cc1 (stereo unspecified),i,.,0.4%
Nc1ccccc1OCCOCCOCCOc1ccccc1N,i,-1.74,5.1%
C=CCNC(=S)N1CCN(CCN=CC2=C(O)CC(c3ccco3)CC2=O)CC1 (stereo unspecified),i,.,-1.7%
O=C(NCc1ccccc1)NC(=O)c1ccccc1,i,1.41,2.9%
O=C(CSc1nnnn1-c1ccc2c(c1)OCCO2)N1CCc2ccccc21,i,-0.57,7.6%
CC(C)NS(=O)(=O)c1ccc(CCC(=O)N2CCOCC2)cc1,i,-0.22,2.9%
O=C(N1CCN(c2ccccc2)CC1)C12CC3CC(CC(C3)C1)C2,i,-0.2,5.3%
CN(C1CCCCC1)S(=O)(=O)Cc1ccccc1,i,0.65,-6.1%
O=C(Cc1cccs1)Nc1cccnc1,i,0.95,2.0%
COc1ccc(CNC(=O)[C@H](C)NC(=O)C2CCN(S(=O)(=O)c3ccc(C)cc3)CC2)cc1,i,0.15,-5.1%
COc1cccc(C2/C(=C(/O)c3cnn(-c4ccccc4)c3C)C(=O)C(=O)N2CCN(C)C)c1 (stereo unspecified),i,-0.38,-0.2%
COC(=O)C(CCCCN1C(=O)C2C3C=CC(C3)C2C1=O)N1C(=O)C2C3C=CC(C3)C2C1=O (stereo unspecified),i,-0.33,-2.5%
CC(C)OC(=O)C1=C2SCC(=O)N2C(N)=C(C#N)C1,i,.,-3.9%
O=C(NCCCn1ccnc1)C(Cc1ccccc1)N1C(=O)c2ccccc2C1=O (stereo unspecified),i,-0.12,-10.3%
O=C(NCCCNCc1ccccc1)/C(=N\O)c1ccccc1,i,-0.27,2.0%
COC(=O)C1=C(C)Nc2nnnn2C1c1cccnc1 (stereo unspecified),i,.,2.3%
O=C(NCCc1ccccc1F)C1CCCN1S(=O)(=O)c1ccc2ccccc2c1 (stereo unspecified),i,.,-2.7%
CCCOC(=O)c1ccc(NC(=O)COC)cc1,i,.,3.6%
CCOc1ccc(-c2cc3nc(C4CCN(C(=O)OC(C)(C)C)CC4)c(C(=O)O)cn3n2)cc1,i,-1.17,-6.2%
Cc1cc(C(=O)CSc2nnc(-c3ccncc3)n2-c2ccccc2)c(C)n1C,i,-0.12,1.9%
O=C(CSc1nnc(-c2ccc(OC(F)F)cc2)o1)N1CCOCC1,i,-1.16,3.6%
N#Cc1nc(Cc2cccc3ccccc23)oc1N1CCOCC1,i,-0.67,2.0%
O=C(NC(Cc1c[nH]c2ccccc12)c1nnc2n1CCCCC2)c1ccc(Cl)cc1 (stereo unspecified),i,.,-6.3%
CN(C(=O)c1ccc(-c2nn(C)c(=O)c3ccccc23)cc1)c1ccccc1,i,.,-1.2%
COc1ccc(-c2nc3nc(C)cc(=O)n3[nH]2)cc1,i,.,-4.7%
Cc1nn(C)cc1CNC(=O)Nc1cccc(Cl)c1,i,.,-0.7%
COC(=O)Cn1c(C(F)(F)F)nc2ccccc21,i,.,3.2%
CCN1CCN(C(=S)c2ccc(Cl)cc2)CC1,i,.,-4.0%
N#Cc1ccc(CSc2nnc(Nc3ccccc3)s2)cc1,i,0.98,5.1%
O=c1oc2c3c4c(cc2c2c1CCC2)OCCN4CCC3,i,3.18,25.6%
COc1ccc(CN2CCN(C(=O)C3CC(=O)N(C4CCCCCC4)C3)CC2)c(OC)c1OC (stereo unspecified),i,1.2,3.1%
CC1CCc2sc3nc(NCc4ccco4)n4ncnc4c3c2C1 (stereo unspecified),i,0.85,1.1%
Cc1cccc(C)c1OCc1nnc(SCC(=O)NCc2ccccc2)o1,i,-0.3,-8.7%
CCOC(=O)N1CCC(NC(=O)c2cccc3c2C(=O)N(Cc2cccnc2)C3)CC1,i,0.3,-3.2%
CC1(C)CC(=O)N(CC(=O)N2CCN(c3ncccn3)CC2)c2ccccc2S1(=O)=O,i,0.53,1.6%
c1ccc(-n2c(SCc3ccncc3)nnc2-c2ccco2)cc1,i,-0.42,-4.2%
CN(C)c1nc2n(c(=O)n1)CCS2,i,.,1.1%
O=c1[nH]c(=O)n(Cc2ccccc2)c2c1C(C(F)(F)F)(C(F)(F)F)N=C(c1ccco1)N2,i,.,5.1%
Clc1cccc(Cl)c1Cn1nnc(-c2cccs2)n1,i,-0.18,3.6%
COC(=O)c1cc2c(=O)n3ccccc3nc2n(C)c1=N,i,1.31,1.8%
N#CCSc1nnc(COc2ccccc2)n1-c1ccccc1,i,.,-0.2%
CCO/N=C(\C)c1c(O)c(CC)c(-c2ccccc2)n(-c2ccccc2)c1=O,i,.,1.6%
Cn1c(NC(=O)c2ccco2)c(-c2ccccc2)c(=O)c2ccccc21,i,-0.92,-2.0%
CCOC(=O)c1c(-c2ccccc2)csc1NC(=O)c1nn(CC)cc1Br,i,-1.1,-0.8%
COc1ccc(CC(=O)Nc2ccc(-c3noc(-c4ccccc4OC)n3)cc2)cc1,i,.,28.8%
Cc1cc(C)cc(N2C(=O)CC(N3CCOCC3)C2=O)c1 (stereo unspecified),i,-0.83,-1.7%
CCOC(=O)c1c(NC(=O)CN2CCOCC2)sc2c1CCCC2,i,0.64,3.1%
CCN(CC)CCCNC(=O)c1ccccc1C,i,-0.6,4.6%
CCOC(=O)c1sc(NC(=O)c2ccco2)nc1C,i,-1.02,-0.4%
O=C(Oc1ccc2cccc(OC(=O)N3CCOCC3)c2c1)N1CCOCC1,i,-0.23,5.3%
Cc1ccc(C)c(C2=CSC3=NCCN23)c1,i,1.68,-1.0%

Going on with the list:
mol,MT1-MMP reporter,WNV protease inh,Hsc70
CCc1nnc(NC(=O)OCc2ccccc2)s1,i,0.22,-1.3%
CC1(C)NC(=O)N(CCOCCOc2ccccc2)C1=O,i,.,-1.3%
Cc1cccc(-n2nnnc2SCC(=O)c2cc(C)n(Cc3ccco3)c2C)c1,i,0.83,0.8%
COc1ccc(C)cc1NC(=O)CN(Cc1nnc(-c2ccc(Cl)cc2)o1)C1CCCC1,i,-0.54,-4.8%
Nn1c(Nc2ccccc2)nc2sc3c(c2c1=O)CCC3,i,0.00231,-5.1%
CCn1ncc(Br)c1C(=O)Nc1cc(C(=O)OC)ccc1C(=O)OC,i,-0.43,-1.4%
CSc1ccccc1NC(=O)c1cnccn1,i,-1.09,-14.3%
O=C(CSc1nnc(-c2ccncc2)n1Cc1ccco1)Nc1nccs1,i,.,3.9%
Cc1cccnc1Nc1nc(-c2ccc(O)cc2O)cs1,i,-0.03,-6.3%
Cc1ccc(C(=O)c2sc3nsc(C)c3c2N)cc1,i,.,0.3%
COc1ccc(OC)c(-n2c(SCC(N)=O)nnc2-c2c[nH]c3ccccc23)c1,i,0.21,1.3%
CN(C)CCSc1nnc(-c2ccccc2)o1,i,-0.15,-3.1%
CCNc1ccc(Br)cc(C(=O)/C=C/c2c(Cl)cccc2Cl)c1=O,i,.,-19.5%
O=C(O)C1CCCCC1C(=O)NCCCN1CCOCC1 (stereo unspecified),i,0.48,-1.4%
COC(=O)CNc1nc(-c2ccccc2F)nc2ccccc12,i,0.44,-1.1%
O=S(=O)(c1ccc2c(c1)OCCO2)N1CCN(Cc2ccc3c(c2)OCO3)CC1,i,0.67,-3.3%
CCCCCCCCc1nc(=S)[nH][nH]1,i,.,2.0%
c1cc2c(cc1CN1CCOCC1)OCO2,i,.,1.3%
Cn1c(CCNC(=O)c2ccccc2)nc2cc(NC(=O)c3ccco3)ccc21,i,-1.59,1.4%
Cc1ccc(NC(=O)CSC(N)=O)cc1Cl,i,0.08,-14.8%
CCn1cc(S(=O)(=O)CC(=O)Nc2cc(C)on2)c2ccccc21,i,1.43,0.3%
Cc1ccc(CSc2nnc(-c3ccccc3N)c(=O)[nH]2)cc1,i,.,-2.8%
COCCn1c(=O)[nH]c2cc(C(=O)NCc3cccnc3)ccc2c1=O,i,1.05,4.9%
O=C(CSc1ccccc1)NCCCN1CCOCC1,i,0.79,2.9%
CN1CCN(Cc2nc3c(c(=O)[nH]c(=O)n3C)n2CCc2ccccc2)CC1,i,1.09,2.4%
CCOCCC(=O)Nc1cc(Cl)ccc1OC,i,.,1.8%
N#Cc1cc2c(nc1SCc1ccc(Cl)cc1)CCCC2,i,.,-0.6%
O=C(CCC(=O)c1cccs1)NC(c1ccccc1)c1ccccc1,i,.,1.7%
Cc1csc(NC(=O)C2COc3ccccc3O2)n1 (stereo unspecified),1.64µM*,.,4.4%
CCN1CCc2nc(NC(=O)CC(c3ccccc3)c3ccccc3)sc2C1,i,.,2.5%
CC(C)COC(=O)C1[C@H]2C(=O)N(Cc3cccs3)C[C@]23C=C[C@H]1O3 (stereo partly specified),i,0.07,-3.6%
Cc1ccc(CCNC(=O)Cn2cccc2)cc1,i,0.95,6.3%
COC(=O)C(Cc1cnc(Cl)s1)(C(=O)OC)c1ccc(C(F)(F)F)cc1[N+](=O)[O-],i,.,-0.4%
CCOC(=O)Cn1nnnc1C(CC)N(Cc1cc2ccc(C)cc2[nH]c1=O)C1CCCC1 (stereo unspecified),i,-1.22,-6.1%
CCOc1ccccc1NC(=O)CCN1CCN(S(=O)(=O)c2ccc(OC)cc2)CC1,i,-0.85,4.0%
CCOC(=O)N1CCC(NC(=O)c2ccc(CS(=O)(=O)c3ccccc3C)o2)CC1,i,-0.5,3.7%
CC(C)OCCCNc1ncnc2c1[nH]c1ccc(F)cc12,i,-0.06,1.8%
COc1ccc(C2N(c3ccccn3)C(=O)C3CCCN32)c(OC)c1 (stereo unspecified),i,-0.94,-3.2%
CC(C)Cc1nc(S(=O)(=O)c2ccc(Cl)cc2)c(N2CCOCC2)o1,i,-0.51,-1.7%
COC(=O)c1sccc1NC(=O)c1ccc(C)s1,i,.,2.0%

Record cards, from the list above. Values in the order: MT1-MMP reporter | WNV protease inh | Hsc70
`Cc1ccc(CCNC(=O)Cn2cccc2)cc1` is listed as i | 0.95 | 6.3%
`O=C(CCC(=O)c1cccs1)NC(c1ccccc1)c1ccccc1` is listed as i | . | 1.7%

(listing goes on)
mol,MT1-MMP reporter,WNV protease inh,Hsc70
COc1cccc(-n2c(Cc3cc(=O)[nH]c(=O)[nH]3)nnc2SCC(=O)NC2CCCCC2)c1,i,-1.33,3.2%
CCOC(=O)CSc1nnc(-c2ccco2)n1-c1ccccc1,i,-0.29,3.4%
O=C(CSc1nnc(-c2ccc(Br)o2)n1Cc1ccccc1)c1ccccc1F,i,-0.28,3.5%
Cc1ccc2cc(CCNC(=O)CC(C)(C)C)c(=O)[nH]c2c1C,i,-0.69,4.1%
O=C(Cn1c(=O)oc2cc(S(=O)(=O)N3CCCC3)ccc21)NCc1ccccn1,i,-0.49,0.1%
Cc1nc(C)c(C(=O)Nc2ccccc2-c2ccccc2)o1,i,0.21,-2.8%
COc1ccc(OC)c(-c2nnc(-c3ccc(C)o3)o2)c1,i,0.25,-15.2%
COc1cccc(C(=O)CN2C(=O)C(C)(C)Oc3ccc(C(=O)N4CCCCCC4)cc32)c1,i,-0.34,-2.5%
Clc1ccccc1OCc1nc(-c2ccccn2)no1,6.65µM*,-0.81,1.5%
C=CCNC(=O)c1cc2nc(C3CC3)cc(C(F)F)n2n1,i,.,2.3%
CCCCNc1c2c3c(cccc3n(C)c1=O)C(=O)c1ccccc1-2,i,.,107.5%
COC(=O)c1ccc2c(=O)n(CCN3CCOCC3)c(SCC(=O)c3ccccc3)nc2c1,i,1.48,0.0%
CC(C)c1nnc(NC(=O)C2CCCCC2)s1,i,0.5,-1.2%
COc1ccc(Nc2ccccc2)c(C)c1,i,0.93,5.2%

Quoted from the listing.
COc1ccc(OC)c(-c2nnc(-c3ccc(C)o3)o2)c1 – WNV protease inh = 0.25
COC(=O)c1ccc2c(=O)n(CCN3CCOCC3)c(SCC(=O)c3ccccc3)nc2c1 – WNV protease inh = 1.48

Bioassay records (PubChem)
